Bioassay records as filed in PubChem BioAssay.
GLA inh pH 4.5: blocks human alpha-galactosidase A at pH 4.5; P06280; purified enzyme, 4-MU-alpha-Gal fluorescence, pH 4.5; activity change, negative = inhibition, % at 105 µM; 230,000 tested, under 10 active; inconclusive = small, poorly fitted or top-dose-only inhibition, or a rising curve; inactive = flat fitted curve, though single readings scatter; no compound was filed as active;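 also: 0% = full activity with enzyme and -100% = basal without enzyme; dose as in the result columns while the protocol names 77 µM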
Target sequence (P06280 whole entry, looked up): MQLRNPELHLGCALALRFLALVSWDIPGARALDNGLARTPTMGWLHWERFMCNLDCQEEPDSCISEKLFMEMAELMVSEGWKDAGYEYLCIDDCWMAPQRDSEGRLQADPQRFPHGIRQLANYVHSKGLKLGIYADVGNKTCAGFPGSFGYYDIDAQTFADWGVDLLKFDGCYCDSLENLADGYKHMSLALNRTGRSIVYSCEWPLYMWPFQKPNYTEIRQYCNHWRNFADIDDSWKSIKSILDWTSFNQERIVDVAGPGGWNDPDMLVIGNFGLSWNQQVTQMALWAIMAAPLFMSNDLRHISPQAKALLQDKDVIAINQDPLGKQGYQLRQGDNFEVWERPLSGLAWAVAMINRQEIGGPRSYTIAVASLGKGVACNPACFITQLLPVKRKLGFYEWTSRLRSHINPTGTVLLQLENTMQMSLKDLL
miR-21 FLuc: raises the signal of a miR-21 reporter; HeLa miR-21 FLuc reporter, luciferase, 48 h; Potency, µM (series often up to 38.3 µM), without a hit: at the top dose reporter change, positive = more light; 340,000 tested, under 10 active; AID 2288; active = well fitted rising curve with a large enough effect; inconclusive = small, poorly fitted or top-dose-only effect; inactive = no such curve, though single readings can be large or run the other way;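 also: % of control where 0% means no effect; miR-21 action dims this reporter so a rising signal means less miR-21 action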
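HeLa miR-21-FLuc reporter line, endogenous miR-21; 2000 cells/well in DMEM/10% FBS; compound titration up to ~40uM final, 48 h, 37 degree Celsius; luciferase detection reagent, 15 min lysis, CCD luminescence.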
Rango release inh: inhibition of RanGTP-driven Rango-importin beta dissociation | Potency, µM (doses to about 46.1 µM), for inactives: top-dose activity change, negative = inhibition | actives 0.071% (n = 340,000) | AID 540253 | Biochemical FRET Rango-importin beta, RanGTP-induced dissociation; active means falling FRET ratio curve, often poorly fitted, with flat reads before Ran was added; inconclusive means other falling curves, or compound fluorescence or quenching; inactive means flat or rising ratio curve;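 also: potency is read from the fitted curve at half-maximal effect; % of control where 0% means no effect; nearly all actives have a fitted effect of over 45% in size; -100% = wells without RanGTP and RCC1; the record marks most hits as doubtful in a second field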
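FRET read at 45 min, room temperature: inhibitors block the CFP/YFP signal rise when RanGTP (0.6 uM Ran, 2 mM GTP, 0.2 uM RCC1) frees Rango (0.1 uM) from importin beta (0.25 uM). Pre-read after 5 min compound exposure flags interference.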
Rango complex inh: inhibitors of Rango-importin beta complex formation; Q14974; Rango CFP/YFP FRET sensor + importin beta, 45 min; Potency, µM (top dose mostly 92.2 µM), for the others: at the highest dose inhibition of complex formation; actives 0.031% (n = 340,000); active = rising FRET ratio curve, often small or poorly fitted; inconclusive = mostly compound fluorescence or quenching in the first reads; inactive = flat curves in all reads;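 also: potency is read from the fitted curve at half-maximal effect; 0% = DMSO wells and 100% = buffer wells lacking importin beta; nearly all actives have a fitted effect of over 15% in size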
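Inhibition scored from the CFP 486 nm/YFP 530 nm FRET ratio 45 min after adding 0.125 microM importin beta to 50 nM Rango biosensor preincubated 5 min with compound (room temperature, PBS with DTT, Tween-20, BSA). No-importin wells as positive control.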
* = called active by the depositor; ? = inconclusive; . = no result given; & = joins results of further samples. The list is partial; count on the stated rates, not on these rows.

GLA inh pH 4.5 | miR-21 FLuc | Rango release inh | Rango complex inh | structure
8 | -1% | 8% | 11% | O=S(=O)(c1ccccc1)c1ccccc1/C=N\O
. | -1% | 1% | -4.5% | Cc1ccccc1OC(C)C(=O)N1CCN(c2ccccn2)CC1 (stereo not drawn)
-5 | -16% | -4% | -3.5% | Oc1[nH]c2ccccc2c1C=NCC1CCCO1 (stereo not drawn)
-2 | -1% | -4% | 6.3% | CCN1C(=O)c2cccc3c(NC(=O)c4ccccc4)ccc1c23
. | 1% | -5% | -2.3% | CC(NC(=O)CSc1n[nH]c(N)n1)c1ccccc1 (stereo not drawn)
-11 | -13% | 1% | 6.2% | CCN=C1Sc2nc3ccc(OCC)cc3cc2CN1CCOC
9 | -16% | -15% | 0.1% | CCOC(=O)c1ccc2c(c1)sc(=NC(=O)c1ccco1)n2CCOC
1 | -6% | 10% | 5.1% | Cc1cc(SCNC(=O)c2ccccc2)ncn1
-28 | 12% | -6% | -5.4% | CC(C)c1ccc(-c2noc(C3CCCN(C(=O)c4ccc(F)cc4F)C3)n2)cc1 (stereo not drawn)
-2 | -2% | 2% | 0.1% | CCCN(C(=O)CN1C(=O)NC2(CCCCCC2)C1=O)C1CCS(=O)(=O)C1 (stereo not drawn)
-22 | -34% | -1% | -1.2% | Cc1ccc(SCCCCN2CCNCC2)cc1
. | -1% | 1% | -1.5% | CCN(CC)CCCNc1ccc(-c2nnc(-c3ccc(OCC(C)C)cc3)o2)cn1
8 | -6% | 9% | -0.1% | COCCCNCC(=O)Nc1sc(C)c(C)c1C(=O)OC
9 | 19% | -27% | ? | Nc1cccc(-c2nc3ccc(N)cc3s2)c1
4 | 11% | 27% | -2.9% | COc1cc(OC)cc(C(=O)N[C@H](C(=O)Nc2cccc(S(=O)(=O)N3CCCC3)c2)C(C)C)c1
-9 | -1% | -7% | -4.7% | COc1ccc(-n2c(Cc3cccn3C)nnc2SCC(=O)Nc2ccc(C)c(Cl)c2)cc1
-9 | 9% | 4% | 0.5% | COc1ccc(-c2[nH]c(-c3ccc(C)cc3)nc2SCC(=O)Nc2nccs2)cc1
0 | 7% | -7% | -0.7% | CCOC(=O)C1CCCN(C(=O)c2cc(Nc3ccc(OC)cc3OC)nc3ccccc23)C1 (stereo not drawn)
0 | -12% | -9% | -1.4% | CN(C)C(=O)c1ccc(Oc2ccc(C(=O)N(C)C)cc2)cc1
10 | 6% | -11% | 1.6% | COc1cccc(-c2csc(N3CCN(CC(=O)NNC(=O)c4ccc(Cl)cc4)CC3)n2)c1
. | 3% | 13% | 5.0% | O=C(CN1C(=O)COc2ccccc21)Nc1ccc(N2CCOCC2)cc1
-4 | -39% | -3% | 11% | Cc1ccsc1/C=N/NC(=O)c1ccco1
-1 | 0% | 6% | 1.8% | CC(C)NC(=O)COc1ccc(S(=O)(=O)N2CCOCC2)cc1
1 | 20% | 9% | 0.1% | O=C(Nc1cc(Sc2ccccn2)cc([N+](=O)[O-])c1)c1cccc(F)c1
-21 | -8% | -2% | -2.8% | COC(=O)CC1C(=O)NC2CCCCC2N1C(=O)c1ccccc1 (stereo not drawn)

As a working copy, 12 of the compounds above.
GLA inh pH 4.5 | miR-21 FLuc | Rango release inh | Rango complex inh | structure
8 | -1% | 8% | 11% | O=S(=O)(c1ccccc1)c1ccccc1/C=N\O
. | -1% | 1% | -4.5% | Cc1ccccc1OC(C)C(=O)N1CCN(c2ccccn2)CC1 (stereo not drawn)
-5 | -16% | -4% | -3.5% | Oc1[nH]c2ccccc2c1C=NCC1CCCO1 (stereo not drawn)
-2 | -1% | -4% | 6.3% | CCN1C(=O)c2cccc3c(NC(=O)c4ccccc4)ccc1c23
. | 1% | -5% | -2.3% | CC(NC(=O)CSc1n[nH]c(N)n1)c1ccccc1 (stereo not drawn)
-11 | -13% | 1% | 6.2% | CCN=C1Sc2nc3ccc(OCC)cc3cc2CN1CCOC
9 | -16% | -15% | 0.1% | CCOC(=O)c1ccc2c(c1)sc(=NC(=O)c1ccco1)n2CCOC
1 | -6% | 10% | 5.1% | Cc1cc(SCNC(=O)c2ccccc2)ncn1
-28 | 12% | -6% | -5.4% | CC(C)c1ccc(-c2noc(C3CCCN(C(=O)c4ccc(F)cc4F)C3)n2)cc1 (stereo not drawn)
-2 | -2% | 2% | 0.1% | CCCN(C(=O)CN1C(=O)NC2(CCCCCC2)C1=O)C1CCS(=O)(=O)C1 (stereo not drawn)
-22 | -34% | -1% | -1.2% | Cc1ccc(SCCCCN2CCNCC2)cc1
. | -1% | 1% | -1.5% | CCN(CC)CCCNc1ccc(-c2nnc(-c3ccc(OCC(C)C)cc3)o2)cn1

Going on with the list:
GLA inh pH 4.5 | miR-21 FLuc | Rango release inh | Rango complex inh | structure
-1 | -22% | -8% | -4.9% | COc1ccc(C(C)=O)cc1COC(=O)c1ccc(N)c([N+](=O)[O-])c1
-1 | -50% | -4% | 0.3% | Cc1ccc2cc(CN(Cc3nnnn3C3CCCC3)C3CCCCC3)c(=O)[nH]c2c1C
-5 | -31% | -7% | 4.4% | Fc1ccc(C2=Nn3c(Cc4ccccc4)nnc3SC2)cc1
. | 1% | 3% | 3.2% | O=C1NC2(CCCCCC2)C(=O)N1Cc1ccccc1Br
4 | -3% | -7% | -2.9% | CC1CCc2c(sc3ncn(N)c(=N)c23)C1 (stereo not drawn)
-12 | 12% | -13% | 4.1% | CSc1nc(-c2ccccc2)c(-c2ccccc2)[nH]1
2 | -8% | ? | 3.4% | Cc1ccc2cccc(Oc3cnccn3)c2n1
1 | 0% | -1% | 3.1% | CCOC(=O)c1cc(-c2ccccc2)sc1NC(=O)c1ccc(OC)cc1
. | 5% | -3% | 0.5% | CNC(=O)CSc1nnc(-c2ccco2)n1-c1cccc(C)c1C
-8 | -17% | 10% | -0.4% | Cc1ccccc1OC(C)c1nc(-c2ccccc2)no1 (stereo not drawn)
. | . | 1% | -2.4% | Cc1ccc(S(=O)(=O)N(C)C)cc1NC(=O)CSc1nnc(C2CC2)n1C1CC1
-1 | 0% | 7% | 0.3% | Cc1c(NCc2ccccc2O)c(=O)n(-c2ccccc2)n1C
-2 | -24% | -9% | -1.3% | O=C(CCCOc1ccc(Cl)cc1Cl)NCC1CCCO1 (stereo not drawn)
. | . | 9% | -2.0% | CC(C)COc1ccc(C(=S)N2CCCC2)cc1
1 | -3% | 7% | -1.1% | O=c1cc(-c2ccccc2)n(S(=O)(=O)c2ccccc2)o1
4 | -8% | 17% | 0.6% | CCNc1ccc(S(=O)(=O)C(F)(F)F)cc1NC(=O)C12CCC(CC1)C2
-3 | -2% | 4% | 2.2% | COc1cc(C(=O)NC(=S)Nc2ccc(NC(=O)c3ccco3)cc2)cc(OC)c1OC
. | -2% | ? | ? | C=CCNC(=O)/C(C#N)=C/c1c(N2CCN(c3ccccc3)CC2)nc2c(C)cccn2c1=O
-8 | -9% | -10% | -0.7% | CC(C)NC(=O)/C(=N\O)c1ccccc1
. | -23% | 8% | 0.1% | CC1CCCN(C2(O)C(=O)Nc3c(C(F)(F)F)cccc32)C1 (stereo not drawn)
-2 | 0% | 1% | 5.4% | O=C(O)COCC(=O)Nc1ccc2c(c1)CCC2
. | . | 21% | 0.2% | Cc1ccc(NC(=O)c2c(C)noc2C)cc1S(=O)(=O)N1CCOCC1
. | 0% | 0% | -1.6% | O=S(=O)(c1ccccc1F)N1CCCc2ccccc21
1 | 0% | -6% | 1.9% | O=C(Cn1c(=S)[nH]c2ccccc2c1=O)N1CCN(c2ccccc2)CC1
. | . | 15% | -0.3% | Cc1ccc(C)c(NC(=O)CN(C)C(=O)c2ccccc2OCc2c(C)noc2C)c1
-8 | 12% | 9% | 2.6% | C/C=C\C=C/C(=O)Nc1cccc(C2=NOC3(C2)C[C@@H](C(N)=O)N(C(=O)c2ccc(Cl)cc2)C3)c1 (stereo partly drawn)
. | -7% | 9% | 0.3% | COc1ccc(/C=N/N2C(C)CCCC2C)cc1O (stereo not drawn)
-3 | 6% | -26% | 2.7% | O=C1NCCCC1C(=O)N/N=C/c1cc([N+](=O)[O-])ccc1O (stereo not drawn)
. | . | 11% | -0.4% | Cc1ccc(S(=O)(=O)N2CCCCC2)cc1NC(=O)CCNC(=O)c1ccccc1
0 | -13% | -10% | 4.0% | O=C(CCCc1cccs1)Nc1nccs1
0 | -7% | -14% | 1.5% | C=CCOC(=O)N1CCN(c2cccc(C(F)(F)F)c2)CC1
. | -2% | 6% | 0.3% | Cc1ccc(NC(=O)CNc2cc(S(=O)(=O)N3CCOCC3)ccc2NCC2CCCO2)cc1F (stereo not drawn)
-1 | -5% | 8% | 0.2% | O=C(/C=C/c1ccccc1)N/C(=C/c1ccccc1)C(=O)Nc1ccc(C(=O)O)cc1
-10 | -3% | 4% | 1.1% | CCOc1cc(N2CCOCC2)c(OCC)cc1NC(=O)CCS(=O)(=O)c1ccc(Cl)cc1
-4 | -3% | 1% | 1.4% | C=C(C)C1CC=C(CN2CCC(C(=O)OCC)CC2)CC1 (stereo not drawn)
1 | 8%&8% | -7% | -0.5% | CCn1c(=O)cc(SCC(=O)N2CCN(c3ccccc3F)CC2)c2ccccc21
-8 | -3% | ? | -0.3% | COc1ccc(-c2csc(NC(=O)c3cc(=O)c4ccccc4o3)n2)cc1OC
8 | -10% | -14% | -4.7% | COc1ccccc1-c1nnc(SC/C(O)=C(\C#N)c2nc3ccccc3[nH]2)n1C1CCCCC1
-1 | -1% | ? | ? | COc1cc(C2C(C#N)=C(N)OC3=C2C(=O)CCC3)c([N+](=O)[O-])cc1OC (stereo not drawn)
. | -1% | -16% | -1.5% | Cn1c(SCC(=O)N2CCCCCC2)nnc1-c1ccco1
3 | 0% | -4% | ? | Cn1c(-c2ccc(F)cc2)cnc1NCc1ccccc1
. | -5% | 9% | 0.3% | COc1ccc(N=C2NC(=O)C(CO)(CO)S2)cc1
. | -1% | 6% | -0.1% | O=C(CN1C(=O)/C(=C/c2ccc(F)cc2)SC1=S)NC1CCS(=O)(=O)C1 (stereo not drawn)
1 | 0% | 7% | 2.8% | COCCn1c(SCC(=O)Nc2cccc(S(N)(=O)=O)c2)nc2ccccc21
. | . | -5% | -1.8% | Cc1c(Cl)cccc1NC(=O)CNC(=O)C1CCN(C(=O)Nc2ccccc2)CC1
-6 | -46% | 3% | -1.1% | CCCCN1CCc2c([nH]c3ccccc23)C1=O
-18 | 8% | 8% | -1.7% | Cc1ccccc1NS(=O)(=O)c1cc(C(=O)NCCC2=CCCCC2)ccc1C
. | . | -4% | 3.0% | CCC(C)Cn1cnc2c(SCc3ccccn3)nc(N)nc21 (stereo not drawn)
. | 1% | -4% | 2.8% | CC(=O)C1=C(c2ccccc2)NC(=O)NC1c1ccc(O)c(Cl)c1 (stereo not drawn)
-3 | -3% | 11% | ? | Cc1cccc(NC(=O)CN2CCCN(S(=O)(=O)c3ccc(Br)s3)CC2)c1

Next part:
GLA inh pH 4.5 | miR-21 FLuc | Rango release inh | Rango complex inh | structure
. | -7% | 1% | 2.9% | CN(CCOc1ccccc1)CC(O)COc1ccccc1 (stereo not drawn)
. | . | ? | ? | O=C1CSC(=S)N1N=Cc1c(O)ccc2ccccc12
-2 | -4% | 17% | 2.3% | COc1cccc(NC(=O)COc2ccc(N3CC(C(=O)NCC(C)C)CC3=O)cc2)c1 (stereo not drawn)
. | . | -16% | 6.3% | CCN(CC)CCCN=C1N[C@@H](c2cccc(C(F)(F)F)c2)C(C(=O)OC)=C(C)N1CC
. | 6% | ? | ? | N=c1c(C(=O)NCCN2CCOCC2)cc2c(=O)n3ccccc3nc2n1CCCN1CCOCC1
-13 | -8% | 0% | 2.5% | CCC1(CC)C(=O)N(C)C(=O)NC1=NCc1ccccc1
-12 | 9% | -5% | ? | Cc1ccc(C(=O)Nc2ccccc2C(=O)N2CC3(C)CC2CC(C)(C)C3)cc1 (stereo not drawn)
-7 | 23% | -27% | -3.1% | CCOC(=O)C(C(=O)Nc1ccc(C)cc1)C1CCCCC1 (stereo not drawn)
5 | -7% | -2% | 1.8% | CCc1nnc(NC2=NCCC2)s1
8 | -79% | 15% | 10% | Cc1cc(N)n2ncc(-c3ccc(F)cc3)c2n1
-5 | 2% | 17% | -4.6% | CCOc1ccc2nc(SCC(=O)c3ccc(C)s3)sc2c1
